Assay outcomes as filed in PubChem.
E coli growth – E. coli growth inhibition; Escherichia coli growth, OD600, 23 h; stronger effect = lower value; OD600 absorbance (no concentration beside the values); actives 0.21% (n = 330,000); AID 1053175;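 active = OD600 absorbance below the run mean of sample wells minus 3.6 SD, in any replicate, cut at about 0.56 in these data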;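 also: stock transfer was 300 nL into about 60 µL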
T cruzi repl – blocks replication of Trypanosoma cruzi. T. cruzi beta-gal in NIH3T3, luminescence, 90 h. AID 1885. inhibition, % (test concentration not listed). actives 1.4% (n = 300,000);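 active = mean inhibition across valid replicates above about 55%, limit read from the data; inconclusive = mean below that limit but half or more replicates reach it; inactive = mean below it, under half of replicates reach it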;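 also: signal also drops with host cell toxicity which is not excluded here; 0% = plate median of DMSO wells and 100% = zero luminescence signal; higher percent means less beta-gal luminescence so fewer parasites; stock transfer was 50 nL into about 50 µL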
Bfl-1 A1 inh – inhibitors of the anti-apoptotic protein A1, read as caspase activation; MEF A1-2A-BIM cells, Caspase-Glo 3/7 luminescence, 3 h; percent of clofoctol response, vehicle zero; caspase activation, % (no concentration beside the values); actives 0.066% (n = 330,000);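 active = over half of replicate activation scores above 10%, or exactly half above 10 with the replicate mean above 10; inconclusive = replicate mean below 10 yet half the replicates above 10; inactive = over half of replicates below 10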;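 also: wells of about 30 µL received 50 nL stock; many hits fall short of the cut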
Ecoli rRNA inh – inhibits bacterial ribosomal RNA function over humanized ribosomes; E. coli WT GFP vs humanized-ribosome RFP mutants, fluorescence, 24 h; stronger effect = lower value; DMSO median 0, no signal -100; GFP signal change (wild-type ribosome), % (concentration not given with the values); actives 1.6% (n = 350,000); AID 720706;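 active = significant combined selectivity score with lowered wild-type GFP, culture density cut under 30%, mutant RFP and density less affected; inactive = any of these conditions unmet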; also: one replicate is shown; some compounds called inactive have numbers as strong as hits
FGF22 binding – shifts melting point of recombinant human FGF22. recombinant FGF22 thermal shift, SYPRO orange fluorescence; percent of sucrose octasulfate shift, DMSO zero. calls only at 9.99 µM. Q9HCT0. actives 1.5% (n = 340,000). AID 651658;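 active = melting point raised past a set limit in the mean and every replicate; inconclusive = no clear call; three in four hits are not shown here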
Target sequence (Q9HCT0 whole entry, looked up): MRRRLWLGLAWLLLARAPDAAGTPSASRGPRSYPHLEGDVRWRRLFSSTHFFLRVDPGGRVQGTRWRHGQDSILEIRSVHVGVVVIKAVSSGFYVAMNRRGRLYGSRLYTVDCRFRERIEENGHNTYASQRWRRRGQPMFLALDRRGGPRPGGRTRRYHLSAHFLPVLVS
Beta cell apopt – beta cell apoptosis inhibition; INS-1E cytokine-induced death, ATP luminescence, 48 h; percent of positive-control rescue, neutral wells zero; protection from apoptosis, % (test concentration not listed); actives 0.8% (n = 300,000); AID 435005;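 active = all replicates at 75% or more, or half of them and the mean; inconclusive = half reach 75% but not the mean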;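 also: 0% = cytokine-treated negative control wells and 100% = positive control rescue; higher means more ATP so stronger rescue from cytokine killing; wells of about 40 µL received 100 nL stock; the first replicate is given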
MLL AF4-AF9 inh – MLL-AF4/AF9 protein interaction inhibition. AlphaScreen, biotin-AF4 peptide binding to FLAG-AF9. inhibition, % at 10 µM. actives 0.47% (n = 350,000);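 active = every replicate reaching a set inhibition limit, whatever the replicate mean, cut at about 25% in these data; inconclusive = mean inhibition reaches that limit but some replicates miss it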;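 also: 0% = plate neutral control median and 100% = total signal loss; the record names both 10 and 1 µM as test concentration; the first replicate is given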
Target sequence (P42568 whole entry, looked up): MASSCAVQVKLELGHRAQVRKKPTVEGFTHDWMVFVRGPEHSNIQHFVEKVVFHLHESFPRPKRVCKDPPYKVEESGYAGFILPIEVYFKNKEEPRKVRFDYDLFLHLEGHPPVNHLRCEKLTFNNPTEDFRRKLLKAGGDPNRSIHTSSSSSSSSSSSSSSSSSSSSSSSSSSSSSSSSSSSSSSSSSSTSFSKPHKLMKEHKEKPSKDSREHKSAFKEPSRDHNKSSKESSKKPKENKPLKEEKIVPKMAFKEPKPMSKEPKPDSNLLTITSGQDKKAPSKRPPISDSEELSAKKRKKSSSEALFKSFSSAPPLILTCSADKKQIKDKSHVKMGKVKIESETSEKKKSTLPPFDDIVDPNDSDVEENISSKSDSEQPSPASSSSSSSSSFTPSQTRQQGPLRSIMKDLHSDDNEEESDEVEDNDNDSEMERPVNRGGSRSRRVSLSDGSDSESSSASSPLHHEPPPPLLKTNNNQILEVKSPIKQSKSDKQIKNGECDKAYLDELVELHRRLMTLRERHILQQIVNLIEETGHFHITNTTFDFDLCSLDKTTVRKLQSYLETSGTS
UCH37 inh – human UCH37 deubiquitinating enzyme inhibition; Q9Y5K5; purified proteasome/UCH37, Ub-AMC cleavage fluorescence; inhibition, % (test concentration not listed); actives 0.33% (n = 330,000); AID 588478;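 active = mean of two replicates above 20%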;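 also: 0% = compound-free wells with enzyme and 100% = wells lacking proteasome; stock transfer was 100 nL into about 20 µL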
Target sequence (Q9Y5K5 whole entry, looked up): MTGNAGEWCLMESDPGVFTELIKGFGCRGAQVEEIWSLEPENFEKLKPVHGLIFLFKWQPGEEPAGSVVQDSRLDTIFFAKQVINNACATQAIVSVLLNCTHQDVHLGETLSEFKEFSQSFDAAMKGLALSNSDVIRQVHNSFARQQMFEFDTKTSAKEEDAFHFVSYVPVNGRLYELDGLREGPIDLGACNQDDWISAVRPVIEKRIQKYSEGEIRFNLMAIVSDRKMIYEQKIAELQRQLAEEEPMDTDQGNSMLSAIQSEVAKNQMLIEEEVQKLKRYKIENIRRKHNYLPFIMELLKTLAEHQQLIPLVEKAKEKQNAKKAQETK
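System: Proteasome-associated human UCH37 deubiquitinase; Input: 0.15 nM proteasome in added enzyme buffer; Also added: Ub-AMC substrate from 1 µM stock; Incubation: 30 min compound-proteasome preincubation then 25 min substrate reaction, room temperature; Detection: fluorescence, ex 355 nm, em 460 nm; Read-out: % inhibition of Ub-AMC cleavage fluorescence; Benchmarks: no-proteasome and no-compound wells.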
Ecoli rRNA inh OD600 – recorded beside Ecoli rRNA inh, whose call it bears; OD600 change, %; measured here: OD600 growth;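 optical density of the mix in the first replicate; 0 = DMSO median and -100 = no signal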
Ecoli rRNA inh RFP – also measured in Ecoli rRNA inh; calls as there; RFP signal change, %; measured here: RFP humanized mutant strains;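 first replicate; 0 = DMSO median and -100 = no signal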
* hit, by the source's call; i = inactive; ? = inconclusive; . = no result given. Only part of the results is shown (hit frequency here may not be typical).

SMILES	E coli growth	T cruzi repl	Bfl-1 A1 inh	Ecoli rRNA inh	Ecoli rRNA inh OD600	Ecoli rRNA inh RFP	FGF22 binding	Beta cell apopt	MLL AF4-AF9 inh	UCH37 inh
CC(NC(=O)C1CCN(S(=O)(=O)c2ccc3nc4c(c(C(=O)O)c3c2)CCCC4)CC1)c1ccccc1 (centres undefined)	0.64	-27	0.0	1	0	-0.3	i	-1	-0.9	1.8
O=C(CSc1nc2c(cnn2-c2cccc(Cl)c2)c(=O)[nH]1)NCCC1=CCCCC1	0.73	.	1.7	4	14	1.3	i	2	2.3	1.8
COC(=O)c1oc2ccccc2c1NC(=O)/C=C/C(=O)O	0.67	-11	0.4	25	17	0.0	i	.	1.4	-5.8
Cc1ccc(-c2nc3cc(C)ccc3o2)cc1	0.7	-17	-12	.	.	.	.	-5	.	-0.3
O=C(COc1ccc(S(=O)(=O)N2CCCCC2)cc1)NCc1ccncc1	0.68	-8	0.1	.	.	.	.	-2	.	0.4
C#CCOCCOCCOCCNc1nc(N2CCN(C(=O)Cn3cc(CC(C)O)nn3)CC2)nc(N2CCN(C(=O)Cn3cc(CC(C)O)nn3)CC2)n1 (centres undefined)	0.69	-7	0.6	7	12	-2.1	i	1	-21	2.9
COc1ccc(OC)c(C2C(C#N)=C(N)Oc3c2c(C)nn3-c2cccc(Cl)c2)c1 (centres undefined)	0.65	-13	0.6	.	.	.	.	2	.	3.0
O=C(NC(=S)N1CCOCC1)C12CC3CCC(CC(C3)C1)C2	0.67	-7	-0.7	.	.	.	.	-1	.	2.6
Cc1cc(-c2cc(C(=O)NC3CCCC3)on2)nc(NC2CCCC2)n1	0.69	-7	2.3	.	.	.	.	4	.	-1.8
CC12C=CC(=O)C=C1CCC1C2C(=O)CC2(C)C1CCC2(O)C(=O)CO (centres undefined)	0.67	.	.	.	.	.	i	.	-15	1.3
CCN(c1ccccc1)S(=O)(=O)c1ccc(C(=O)NCC2(N(C)C)CCCCC2)cc1	0.66	.	0.1	3	-4	3.0	i	-3	2.8	1.6
CCCCOC(=O)C1=C(C)NC(=O)NC1c1cc2c(cc1Br)OCO2 (centres undefined)	0.72	8	-0.6	-4	-4	-3.7	i	-1	3.7	1.4
Oc1ccc(Br)cc1/C=N/Nc1nc(N2CCCCC2)nc(N2CCOCC2)n1	.	74*	0.9	17	12	2.3	i	7	1.1	.
O=C(Nc1ccccc1)/C(=C/c1ccc([N+](=O)[O-])cc1)NC(=O)c1ccccc1	0.72	-2	-0.2	.	.	.	.	-7	.	1.9
CCc1nn(CC(=O)NCc2ccccc2Cl)c(=O)c2cccn12	0.67	-4	0.1	0	5	-4.5	i	-9	-1.6	3.0
Cc1ccc(Cl)cc1NC(=S)N(C)N	0.59	-20	2.2	16	10	1.0	i	-6	1.3	-0.1
O=C(NCC1CCCO1)c1cc(-c2ccccc2)on1 (centres undefined)	0.69	-5	-1.3	.	.	.	.	32	.	2.6
O=C(NCc1ccc(F)cc1)C(c1ccc(F)cc1)N(C(=O)c1csnn1)C1CC1 (centres undefined)	0.65	1	-0.2	.	.	.	i	2	0.7	-0.2
COC(=O)[C@@H]1C[C@@]2(O)[C@H](O)[C@H](O)[C@H](O)C[C@H]2N1Cc1ccc(-c2ccccc2)cc1	.	-29	0.5	5	-4	-1.4	i	-2	3.7	4.1
O=C(Nc1ccc2c(c1)OCO2)C1CCN(C(=O)CSc2ncnc3ccccc23)CC1	0.7	10	1.1	.	.	.	.	.	.	5.0
c1ccc2oc(CCc3nc4ccccc4o3)nc2c1	0.66	3	-0.8	.	.	.	.	-7	.	0.9
Cc1c(OCC(F)(F)F)ccnc1CS(=O)c1nc2ccccc2[nH]1 (centres undefined)	0.68	-5	0.1	-7	-10	4.9	i	-5	-5.2	-0.6
Cc1ccc(NC(=O)C(CC(C)C)NC(N)=O)cc1Cl (centres undefined)	0.68	-17	0.7	6	5	2.3	i	-6	-2.3	1.1
CC(=O)c1c(C)[nH]c(C(=O)Nc2cc(C)ccc2C)c1C	0.76	-2	0.5	9	7	3.8	i	0	-0.2	-0.2
Cc1cccc(N2CCN(C(=O)Cc3ccccc3[N+](=O)[O-])CC2)c1C	0.66	4	0.0	-18	-23	2.5	i	1	5.8	4.2
The list continues.
SMILES	E coli growth	T cruzi repl	Bfl-1 A1 inh	Ecoli rRNA inh	Ecoli rRNA inh OD600	Ecoli rRNA inh RFP	FGF22 binding	Beta cell apopt	MLL AF4-AF9 inh	UCH37 inh
COC(=O)c1ccc(OC(=O)c2ccc(OC)c(OC)c2)c(OC)c1	0.68	-14	-0.2	.	.	.	.	1	.	3.8
CCOC(=O)c1sc(NC(=O)CSc2nccc(C)n2)nc1C	0.72	2	1.4	-1	1	-1.5	i	3	-3.6	2.9
O=C(Nc1ccccc1N1CCOCC1)c1cc(-c2ccncc2)nc2ccccc12	0.7	-1	-0.1	.	.	.	i	3	14	4.6
COC(=O)Cn1cnc2c(C#N)c3n(c2c1=O)CCCCC3	0.74	-4	-0.7	.	.	.	.	-1	.	-0.9
Cc1sc2nc(COC(=O)c3ccc(Cl)c(N)c3)[nH]c(=O)c2c1C	0.71	21	0.2	-7	-6	6.5	i	-5	-1.0	-3.5
Cc1cccc(NC(=S)N2CCC(c3nc4ccccc4o3)CC2)c1C	0.69	-8	0.5	-13	-9	-2.1	i	-2	7.8	-1.0
O=C(OC1CCCCC1=O)c1cccc(S(=O)(=O)N2CCOCC2)c1 (centres undefined)	0.68	-5	-0.7	5	8	-1.8	i	-4	-1.0	0.2
CC(=O)NCCOC(=O)Nc1ccncc1	0.66	-8	-0.2	.	.	.	.	-2	.	3.6
C=CCn1c(COc2ccccc2OC)nc2ccccc21	0.67	1	-0.1	-3	1	-5.1	i	0	-2.0	1.5
CCn1c(COc2ccccc2)nnc1SCC(=O)NC1CCCCC1	0.71	-9	1.0	.	.	.	.	-6	.	0.3
CC1CCN(c2c(NCc3ccc(C(=O)NCc4ccccc4)cc3)c(=O)c2=O)CC1	0.71	10	?	-2	1	2.6	i	3	1.5	-0.4
CC1CCCN(C(=O)c2ccc3c(c2)OCCO3)C1 (centres undefined)	0.66	.	2.1	1	0	-1.7	i	-1	0.4	3.0
Cc1ccccc1-c1cc2c(nn1)-c1ccccc1C2=O	0.68	-1	-12	.	.	.	.	7	.	14
O=C1CCC(=O)N1c1ccc(-c2nc3sc4c(c3c(=O)o2)CCC4)cc1	0.63	-14	1.5	1	-1	-0.8	i	6	-1.2	-32
Cc1cccc(N2CC(C(=O)NCC3COc4ccccc4O3)CC2=O)c1C (centres undefined)	0.68	.	0.1	.	.	.	i	-8	1.8	4.0
COCCSc1ccccc1C(=O)Nc1nnc(COC)s1	0.69	-9	-0.2	.	.	.	.	-3	.	-1.2
CN(c1ccccc1)S(=O)(=O)c1cccc(NC(=O)CN2CCCc3ccccc32)c1	0.72	20	-0.3	20	-32	54	i	15	.	5.2
COc1cc(CNc2ccc3[nH]c(=O)[nH]c3c2)ccc1OCc1ccc(F)cc1Cl	0.74	-10	-0.9	1	4	-1.0	i	-2	-1.8	-2.0
Cc1sc(NC(=O)c2ccco2)c(C(=O)c2ccc(Cl)cc2)c1C	0.72	13	-0.8	-6	5	9.5	i	-4	7.6	1.1
Fc1ccccc1OCCCN1CCOCC1	0.68	-7	0.9	.	.	.	.	-4	.	1.5
CCOC(=O)c1c(NC(=O)C2C3C=CC(C3)C2C(=O)O)sc2c1CC(C)(C)OC2 (centres undefined)	0.66	-3	0.1	4	-3	1.1	i	0	-2.2	0.7
C=CCn1c(SCC(=O)NC(=O)NCCC)nnc1C1CCCCC1	0.76	2	0.7	.	.	.	.	7	.	5.2
Cc1ccc(/C=N/NC(=O)c2ccc(N(C)S(=O)(=O)c3ccccc3)cc2)cc1	.	-10	-0.7	-2	-15	0.4	i	9	3.0	.
COc1cc(-c2nc(Cc3ccccc3Cl)no2)cc(OC)c1OC	0.63	6	0.0	.	.	.	.	-9	.	1.2
O=C(CC12CC3CC(CC(C3)C1)C2)NCc1ccccc1	0.67	6	0.7	13	14	1.5	i	4	-6.2	6.8
Going on with the list.
SMILES	E coli growth	T cruzi repl	Bfl-1 A1 inh	Ecoli rRNA inh	Ecoli rRNA inh OD600	Ecoli rRNA inh RFP	FGF22 binding	Beta cell apopt	MLL AF4-AF9 inh	UCH37 inh
COC(=O)c1cc(S(=O)(=O)NCC2CCN(Cc3ccc(C)cc3)CC2)c[nH]1	0.72	23	0.4	11	8	6.4	i	.	-7.0	4.6
S=c1[nH]ccn1-c1ccccc1Cl	0.66	2	-0.2	20	7	1.2	i	-7	0.9	0.0
CCN1CC(CN(C)Cc2cn(-c3ccc(C)cc3)nc2-c2ccc(F)cc2)CC1=O (centres undefined)	0.66	1	0.7	-10	-4	-1.0	i	-1	2.2	-0.4
Cc1ccc(S(=O)(=O)N2CCCOC2CNC(=O)C(=O)NCc2ccncc2)cc1 (centres undefined)	0.67	-7	1.2	.	.	.	.	.	.	2.2
C=CC(=O)NC(NC(=O)C=C)c1ccc(Br)cc1	0.66	-6	-0.1	.	.	.	.	0	.	1.6
O=C(N(Cc1ccccc1)c1ccccn1)C12CC3CC(CC(C3)C1)C2	0.65	13	-0.2	.	.	.	.	.	.	0.3
COc1ccc(CSc2nnc3[nH]c(=O)cc(N)n23)cc1	0.68	-9	-1.2	13	2	-1.6	i	3	-2.2	4.9
COc1cccc(C2CC(c3cccs3)=NN2C(=O)c2ccco2)c1O (centres undefined)	0.69	18	-0.5	-57	-74	7.7	i	-3	2.8	-6.3
Cc1nc(S(=O)(=O)c2ccc(Br)cc2)nc2c1CCC2	0.62	9	-0.7	-1	-13	-7.4	i	-2	-2.5	0.5
COCCN(C(=O)c1cccc(N2C(=O)CCC2=O)c1)c1nc(-c2ccc([N+](=O)[O-])cc2)cs1	0.72	-3	0.1	-21	-21	1.8	i	3	-0.8	3.2
Cc1ncoc1C(=O)NC1CCCc2c1cnn2-c1ccc(C(C)(C)C)cc1 (centres undefined)	0.69	24	.	-24	-31	2.9	i	.	2.0	1.9
c1ccc(CCCNc2ncccn2)cc1	0.69	-9	-0.3	.	.	.	.	-3	.	-1.7
O=C(NCC1(N2CCOCC2)CCCCC1)c1cccc(S(=O)(=O)N2CCc3ccccc3C2)c1	0.68	26	-0.3	-10	-10	19	i	11	0.5	4.0
O=C(C1CCN(S(=O)(=O)c2ccc(Cl)cc2)CC1)N1CCCCCCC1	0.67	9	-0.8	-2	-26	0.8	i	13	15	3.0
CCN(C(=O)COC(=O)Cc1ccc(F)cc1)c1c(N)n(Cc2ccccc2)c(=O)[nH]c1=O	0.68	.	0.7	12	14	-1.2	i	-7	-3.2	-1.5
Cc1ccc(-c2nc(C(=O)NCCCN(C)C)cc3c2[nH]c2ccccc23)cc1	0.65	43	0.2	-34	-47	5.3	i	21	17	-92
